Arbovirus anti – blocks arbovirus infection; arbovirus infection cell-based antiviral screen; inhibition, % at 10 µM; 0.37% of 200,000 active;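 active means inhibition from about 30%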;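 further: bluetongue infection of BSR cells; cell survival read as ATP light after 72 h; 0% = infected wells without compound and 100% = uninfected wells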
RecA intein inh – inhibitors of M. tuberculosis RecA intein splicing; inhibition, %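 (about 9 µM by stock and volumes)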; cell-free RecA intein splicing, fluorescence; P9WHJ3; 0.75% of 290,000 active; in the data active means inhibition above about 30%; inconclusive means no clear call, values can overlap the other calls;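 further: 0% = vehicle wells and 100% = reference inhibitor control wells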
Target sequence (P9WHJ3 whole entry, looked up): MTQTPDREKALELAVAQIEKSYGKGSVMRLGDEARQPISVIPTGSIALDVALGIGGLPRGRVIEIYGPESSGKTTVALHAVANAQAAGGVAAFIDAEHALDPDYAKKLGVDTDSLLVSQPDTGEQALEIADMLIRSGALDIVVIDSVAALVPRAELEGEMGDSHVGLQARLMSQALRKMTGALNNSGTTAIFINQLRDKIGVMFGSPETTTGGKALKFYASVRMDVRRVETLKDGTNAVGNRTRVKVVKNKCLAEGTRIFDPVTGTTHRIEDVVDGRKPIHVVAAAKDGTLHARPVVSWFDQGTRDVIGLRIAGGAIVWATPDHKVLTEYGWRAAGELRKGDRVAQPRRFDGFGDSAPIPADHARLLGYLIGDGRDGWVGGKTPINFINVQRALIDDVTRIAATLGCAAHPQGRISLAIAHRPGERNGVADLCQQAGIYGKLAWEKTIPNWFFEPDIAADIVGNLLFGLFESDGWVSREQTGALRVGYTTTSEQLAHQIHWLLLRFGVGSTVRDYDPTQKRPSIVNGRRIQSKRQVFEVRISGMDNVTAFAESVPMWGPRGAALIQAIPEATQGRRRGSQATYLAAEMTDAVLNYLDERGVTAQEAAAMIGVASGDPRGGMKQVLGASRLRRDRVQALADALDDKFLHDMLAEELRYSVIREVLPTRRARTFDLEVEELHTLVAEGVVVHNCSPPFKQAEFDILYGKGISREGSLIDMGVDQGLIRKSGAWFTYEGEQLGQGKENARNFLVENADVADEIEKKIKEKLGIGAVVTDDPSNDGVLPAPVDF
Mtb growth – M. tuberculosis H37Rv growth inhibitors, H37Rv strain (AID 1626); 0.95% of 220,000 active; M. tuberculosis H37Rv growth inhibition; higher % means a stronger effect; inhibition, % at 10 µM, or IC50 in µM where a hit was titrated;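 active means confirmed in a dose series; inconclusive means inhibition above 80% but not taken into the dose series; inactive means below 80% or under 30% at every dose of the series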;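 further: bacteria incubated seven days before Alamar blue readout; 0% = bacteria only wells and 100% = bacteria with antibiotic wells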
Mtb bLac sens – beta-lactam sensitization of Mtb H37Rv | M. tuberculosis H37Rv growth with meropenem, percent inhibition; hits of this screen are not shown here | inhibition, % at 25 µM | 0.27% of 330,000 active | AID 434955;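 active means about 74% or more and at least 40 points above the plate without the antibiotic, then above 30% in a dose series; inconclusive means first-round hits that could not be retested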;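 further: growth measured after seven days incubation then overnight dye step; 0% = bacteria only wells and 100% = bacteria with antibiotic; twin plates without the antibiotic show which effects depend on it; some results filed as inactive read as strong as hits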
YopH inh – blocks Yersinia enterocolitica YopH tyrosine phosphatase | fluorescence Ex485/Em525 | 0.16% of 140,000 active | inhibition, %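 (about 10 µM by stock and volumes)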 | AID 898;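 active means inhibition of 50% or more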;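 further: controls were vehicle for no effect and minimum signal wells for full effect; inactives centre near -20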
Arbovirus anti repeat – further read-out of Arbovirus anti, marked with its call; inhibition, %; measured here: 10K subset replicate screen; many hits read low in the repeat;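 first of two repeat runs on a subset; 0% = infected and 100% = uninfected wells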
Active calls of the source: *; ? = inconclusive; . = no result given.

SMILES	Arbovirus anti	RecA intein inh	Mtb growth	Mtb bLac sens	YopH inh	others
O=C(O)c1cccc(S(=O)(=O)NCCc2ccccc2)c1	0	2.6	-4%	-2	.
CS(=O)(=O)Cc1ccc(C(=O)N2CCCC2c2cccs2)cc1 (stereo not given)	.	-1.4	.	3	.
COCCCN(CC(=O)O)S(=O)(=O)c1cccc(Cl)c1	7	-4.1	-1%	-1	.
COc1ccc(Cl)cc1NC(=S)Nc1ccccc1F	9	-0.4	-5%	-11	.
N#C/C(=C\c1ccc(OC(=O)c2ccc(Br)s2)cc1)c1nc2ccccc2[nH]1	-1	.	66%	59	-35
CC1CCCN(S(=O)(=O)c2coc(C(N)=O)c2)C1 (stereo not given)	5	1.0	-1%	?	-8	Arbovirus anti repeat=1
O=C(CCCn1cc([N+](=O)[O-])cn1)NC1CCCCCC1	16	-0.3	6%	-3	.
CCc1ccc(-c2nn(-c3cc(Cl)ccc3[N+](=O)[O-])c(=O)c3ccccc23)cc1	-2	.	4%	.	-42
CCNc1nnc(-c2ccncc2)s1	1	-3.0	-2%	-2	-22
COc1ccc(-c2nc(C(=O)NCCCN3CCOCC3)cc3c2[nH]c2ccccc23)cc1OC	.	0.3	.	0	.
Cc1cccc(NC(=S)N/N=C2\CC(C)(C)Oc3ccc(O)cc32)c1	13	-23	4%	-9	-14
CCN(CC)C1CCN(C(=O)c2ccc(OC3CCN(CCc4ccccc4)CC3)cc2)C1 (stereo not given)	.	-0.2	.	?	.
O=S(=O)(/N=C(/c1ccccc1)N1CCCCC1)c1ccccc1	-6	0.7	2%	3	-18
Cc1ccccc1NC(=O)CCC(=O)N/N=C/c1ccc(F)cc1	10	-1.9	1%	6	.
O=C(COC(=O)C1CC2C=CC1C2)Nc1cccc(S(=O)(=O)N2CCCCCC2)c1 (stereo not given)	4	9.0	-5%	54	-40
C[C@@H](NC(=O)c1nc[nH]c1C(=O)NCC(=O)OC(C)(C)C)c1ccccc1	.	-0.9	.	3	.
Cc1csc(=N)n1Cc1ccccc1	-4	-0.6	-2%	-2	1
O=C(CSc1nnc(COc2ccc(Br)cc2)o1)NC1CCCCC1	.	-2.3	.	0	.
Cc1[nH]c(=S)c(C#N)c(C)c1CCC#N	.	-1.5	-2%	-2	.
CCC(/C=N/Nc1ccc(S(=O)(=O)N2CCCC2)cc1[N+](=O)[O-])CC	-3	0.0	-7%	5	-29
O=C1CC(SC2=NCCS2)C(=O)N1c1cccc(Cl)c1Cl (stereo not given)	1	-3.3	-1%	-2	.
Cc1cc(OCC(=O)NCc2cccnc2)c2c(C)c(C)c(=O)oc2c1	.	-0.6	.	8	.
COc1ccc(OCc2cc(C(=O)N[C@H]3CCCCNC3=O)no2)c(Cl)c1	.	0.9	.	1	.
COc1ccc(OC)c(NC(=S)NCc2cccnc2)c1	5	1.1	-4%	0	-32
COc1ccc(CCNC(=O)Cn2c(=O)n(CCCC(=O)NCc3ccco3)c(=O)c3sccc32)cc1OC	-4	0.4	2%	-6	.
O=C1C2C3C=CC(C2C(=O)N1c1ccc(O)cc1)C1C2C(=O)N(c4ccc(O)cc4)C(=O)C2C31 (stereo not given)	.	3.1	.	8	.
Cc1cc(C)c(S(=O)(=O)N2CCCCC2CCNC(=O)C(=O)NCC2CCCO2)c(C)c1 (stereo not given)	.	0.9	.	-12	.
COC(=O)c1c(NC(=O)c2ccc(N(C)S(=O)(=O)c3ccc(C)cc3)cc2)sc2c1CCCC2	-23	0.5	6%	?	-3
CCOC(=O)C1(C)NC(c2ccc(OC)cc2OC)C2C(=O)N(c3cccc(OC)c3)C(=O)C21 (stereo not given)	2	-3.4	-3%	-4	-43
C=CCOC(=O)C1=C(C)Nc2nnnn2C1c1cccc(OC)c1OC (stereo not given)	-5	-2.3	2%	-1	-45
COc1c(C)cc(Br)cc1C(=O)Nc1cccc(NC(=O)c2ccco2)c1	-25	8.8	15%	8	19
[N-]=[N+]=NC[C@H](Cc1ccccc1)N1CCN(Cc2ccccc2)CCC1=O	.	0.5	.	-10	.
CCn1cc(C(=O)N(C)c2ccc(OC)cc2OC)c2cc(OC)c(OC)cc2c1=O	.	-1.0	.	-4	.
CCCn1c(SCC(=O)N2CC(=O)Nc3ccccc32)nc2ccccc21	2	.	6%	6	-26
O=C(NC1CC1)C1CCCN(C(=O)NC2CCCCC2)C1 (stereo not given)	7	-0.7	2%	-2	.
NS(=O)(=O)c1cccc(N2CCNCC2)c1	-3	1.5	-10%	-3	.
C=C(C)CN(CC)C(=O)CN1C(=O)NC2(CCCc3ccccc32)C1=O (stereo not given)	.	0.1	.	-2	.
Cc1cc(C)c2c(=O)[nH]c(SCc3ccccc3)nc2n1	-9	0.1	-10%	3	.
Cc1ccnc(NC(=O)CCC(=O)N(CC(=O)NCc2ccccc2)Cc2cccs2)c1	22	-1.8	7%	-4	.
CN1CCN(C(=O)/C(=C\c2cccnc2)NC(=O)c2cccc(Br)c2)CC1	.	2.7	.	-8	.
Cc1ccc(C(=O)N/N=C\c2cccn2C)cn1	-1	0.0	-24%	-4	-31
CC(NC(=O)Nc1ncccn1)(C(F)(F)F)C(F)(F)F	7	1.4	-3%	0	-47
CN(C)/C=C1\N=C(c2ccc3c(c2)OCO3)OC1=O	-2	1.1	0%	14	9
Cc1ccc(NC(=O)CC2SC(=NC3CCCCC3)NC2=O)cc1 (stereo not given)	7	1.3	-8%	2	-26
O=c1[nH][nH]c(C(F)(F)F)c1C=Nc1ccc(Cl)cc1	-1	.	-11%	0	-53
N#Cc1cccc(CN2CCC(=O)N([C@H](CO)Cc3ccccc3)CC2)c1	.	3.8	.	-3	.
O=C(O)CCCCCN=C1CCc2ccccc2N1	0	1.1	7%	.	-29
COc1ccc(C(=O)C2CCCN(C(=O)c3ccnn3C)C2)c(C)c1 (stereo not given)	.	-1.2	.	3	.
Cc1ccc(C2/C(=C(\O)c3ccc4c(c3)OCCO4)C(=O)C(=O)N2CCCN(C)C)o1 (stereo not given)	14	.	-4%	.	-39
O=C1c2ccccc2C(=O)N1CCc1nc(-c2ccccn2)no1	0	-0.1	-5%	-13	-47
Next part
SMILES	Arbovirus anti	RecA intein inh	Mtb growth	Mtb bLac sens	YopH inh	others
C[C@H]1C=C(C(=O)N2CCN(Cc3ccc4c(c3)OCO4)CC2)O[C@@H](OCc2ccc(CO)cc2)C1	1	-1.9	.	-1	.
Cc1cc(-c2ccccc2)nc(N/N=C/c2ccccc2)n1	.	-5.4	.	40	.
CC1CCc2c(sc3ncnc(SCC(=O)Nc4ccc(C(=O)O)cc4)c23)C1 (stereo not given)	.	0.3	.	-2	.
COc1ccccc1N1CCN(C(=O)CCC(=O)Nc2nnc(C(C)C)s2)CC1	.	-0.6	.	-2	.
C=CCn1c2ccccc2c2nnc(SCC(=O)NC(C(=O)OC)C(C)C)nc21 (stereo not given)	1	-0.6	-5%	-1	8
CCN(CC)c1ccc(NC(=O)CCS(=O)(=O)c2ccc(Br)cc2)c(C)c1	.	-8.8	.	4	.
Cc1cc(=O)oc2cc(OCC(=O)N3C[C@H]4C[C@@H](C3)c3cccc(=O)n3C4)ccc12	.	1.9	.	0	.
Cc1ccc(CNC(=O)c2ccc(Cn3nc(C)c(Cl)c3C)o2)cc1	9	1.6	3%	-24	-24
O=C(COc1ccccc1)N=C1SC2CS(=O)(=O)CC2N1c1ccccc1F (stereo not given)	.	1.3	.	0	.
O=C1NC(Nc2nc3ccccc3s2)(C(F)(F)F)C(=O)N1C1CCCCC1 (stereo not given)	-38	4.5	8%	5	-23
COc1ccc2c(c1)CC/C(=C/c1cc(OC)c(OC)c(OC)c1)C2=O	6	9.2	-1%	81	.
COc1ccccc1CN1CCCCCC1	.	-1.1	.	-1	.
COC1CCCN(Cc2cn(C)nc2-c2ccc(Oc3ccccc3)cc2)C1 (stereo not given)	-3	0.0	1%	1	.
Cc1cc(C)nc(Nc2ccc(Cl)cc2C)n1	.	-1.6	.	-8	.
COc1ccccc1C1NC(=O)NC(C)=C1C(=O)OCc1ccccc1 (stereo not given)	.	0.4	.	-4	.
COc1ccc2cc(C(=O)N3CCCC(Nc4ccc(F)cc4)C3)n(C)c2c1 (stereo not given)	.	0.9	.	-9	.
CSCC[C@H](N)C(=O)NC[C@H]1CC[C@H](C(=O)N[C@@H](Cc2ccccc2)C(=O)O)CC1	.	-1.7	.	-1	.
CS(=O)(=O)Nc1cccc(C2=NN(C(=O)c3ccccc3)C(c3cccs3)C2)c1 (stereo not given)	.	5.4	.	-1	.
CCCC[C@@H]1CN=C(N)N1CCc1cccc(F)c1	.	-0.3	-3%	-15	.
COc1ccccc1CNCc1cc(OC)c(OC)cc1OC	4	0.2	-1%	-7	-26
N=c1c2c3c(sc2ncn1N)CCCCC3	-6	-1.0	-6%	-7	1
N#C/C(=C/c1ccc(O)c(O)c1)C(=O)NCc1ccc(Cl)cc1	.	11	.	1	.
CC(=O)Nc1nc(C)c(Oc2cccc(C(F)(F)F)c2)c(=O)[nH]1	.	-0.5	-4%	0	.
CC(=O)c1ccccc1OC(=O)CCN1C(=O)C2C3C=CC(C4CC34)C2C1=O (stereo not given)	6	1.5	4%	-5	.
O=C(CSc1nc(=O)n2ccccc2n1)N1N=C(c2cccs2)CC1c1ccc(F)cc1 (stereo not given)	.	3.5	.	-14	.
NC(=O)c1ccsc1NC(=O)COC(=O)/C=C/c1ccc([N+](=O)[O-])cc1	.	-0.3	-4%	-3	.
Cc1cccc2sc(N(CCN(C)C)C(=O)C3CCN(S(=O)(=O)c4cccs4)CC3)nc12	.	4.2	.	-10	.
CCNC(=O)N1C(=O)C2(OCCO2)c2ccccc21	4	7.8	3%	2	-40
CC1(C)Cc2c(cnn2-c2ccc(F)cc2)C(NC(=O)CCN2CCCC2=O)C1 (stereo not given)	.	1.5	.	10	.
CCOc1ccc(C2N(c3cc(C)on3)C(=O)C3CCCN32)cc1OC (stereo not given)	7	0.4	-9%	-11	-13

By substructure: those above containing a COOH group (5)
SMILES	Arbovirus anti	RecA intein inh	Mtb growth	Mtb bLac sens	YopH inh	others
O=C(O)c1cccc(S(=O)(=O)NCCc2ccccc2)c1	0	2.6	-4%	-2	.
COCCCN(CC(=O)O)S(=O)(=O)c1cccc(Cl)c1	7	-4.1	-1%	-1	.
O=C(O)CCCCCN=C1CCc2ccccc2N1	0	1.1	7%	.	-29
CC1CCc2c(sc3ncnc(SCC(=O)Nc4ccc(C(=O)O)cc4)c23)C1 (stereo not given)	.	0.3	.	-2	.
CSCC[C@H](N)C(=O)NC[C@H]1CC[C@H](C(=O)N[C@@H](Cc2ccccc2)C(=O)O)CC1	.	-1.7	.	-1	.

The main list resumes, starting two compounds before the break.
SMILES	Arbovirus anti	RecA intein inh	Mtb growth	Mtb bLac sens	YopH inh	others
CC1(C)Cc2c(cnn2-c2ccc(F)cc2)C(NC(=O)CCN2CCCC2=O)C1 (stereo not given)	.	1.5	.	10	.
CCOc1ccc(C2N(c3cc(C)on3)C(=O)C3CCCN32)cc1OC (stereo not given)	7	0.4	-9%	-11	-13
C=CC[n+]1c(-c2ccccc2)csc1NC(C)(C)C	7	-1.2	5%	-1	.
Cn1c(O)c(C=Nc2ccc3c(c2)CCC3)c(=O)n(C)c1=O	.	-1.9	>100µM*	99	.
Cc1cc(Cl)cc(Cl)c1OCCN1CCCC1	.	-2.9	.	-7	.
CC(NC(=O)c1ccc(C(C)(C)C)cc1)C(=O)O (stereo not given)	-2	-0.7	-4%	0	-16
COc1ccc(Nc2nc3c(C)cccc3cc2C#N)cc1	-4	-5.4	3%	1	.
Cc1coc2c(C)c3oc(=O)c(CCC(=O)NCCC(=O)O)c(C)c3cc12	.	-2.0	.	?	.
CC(C)CNC(=S)NC(=O)c1ccc([N+](=O)[O-])cc1	5	-7.0	10%	59	-26
CCN(CC)CCNS(=O)(=O)c1ccc(Cl)cc1	3	1.6	-5%	2	-32
CC(=O)Nc1ccc(S(=O)(=O)N2CCN(C(=O)N3CCOCC3)CC2)cc1	0	-2.0	2%	3	-30
COc1ccc(NC(=O)c2sc(SCc3ccccc3)nc2N)cc1	5	5.4	9%	92	-2

The final three compounds of the section above are carried over, then new ones follow.
SMILES	Arbovirus anti	RecA intein inh	Mtb growth	Mtb bLac sens	YopH inh	others
CCN(CC)CCNS(=O)(=O)c1ccc(Cl)cc1	3	1.6	-5%	2	-32
CC(=O)Nc1ccc(S(=O)(=O)N2CCN(C(=O)N3CCOCC3)CC2)cc1	0	-2.0	2%	3	-30
COc1ccc(NC(=O)c2sc(SCc3ccccc3)nc2N)cc1	5	5.4	9%	92	-2
COc1ccc2c(c1)C1NC(=S)N[C@@](C)(O2)C1C(=O)Nc1ccccc1 (stereo not given in full)	12	-1.6	2%	-17	-17
Cc1cccc(NC(=O)c2ccc(-n3cccn3)c([N+](=O)[O-])c2)c1	-6	-2.2	-5%	-2	-21
O=C(NC(=S)Nc1ccccc1)c1ccc(Br)o1	3	-0.1	6%	2	.
CC(=O)Oc1ccc2occ(C(=O)c3ccccc3)c2c1	.	0.0	.	58	.

Source: PubChem (several laboratories)

The list is partial. The share of hits here may be higher or lower than overall.
